VDR inh: vitamin D3 receptor (human) inhibition; P11473; VDR-SRC2-3 peptide fluorescence polarization, 2 h; Potency, µM, without a hit: max response, negative = inhibition, most hits filed as inhibitors; actives 0.93% (n = 400,000); AID 504847; active means well fitted inhibition curve with a large enough effect; inconclusive means small, poorly fitted or top-dose-only effect, or another doubt; inactive means no such curve, though single readings can be large or run the other way; further: series mostly up to about 120 µM
Target sequence (P11473 whole entry, looked up): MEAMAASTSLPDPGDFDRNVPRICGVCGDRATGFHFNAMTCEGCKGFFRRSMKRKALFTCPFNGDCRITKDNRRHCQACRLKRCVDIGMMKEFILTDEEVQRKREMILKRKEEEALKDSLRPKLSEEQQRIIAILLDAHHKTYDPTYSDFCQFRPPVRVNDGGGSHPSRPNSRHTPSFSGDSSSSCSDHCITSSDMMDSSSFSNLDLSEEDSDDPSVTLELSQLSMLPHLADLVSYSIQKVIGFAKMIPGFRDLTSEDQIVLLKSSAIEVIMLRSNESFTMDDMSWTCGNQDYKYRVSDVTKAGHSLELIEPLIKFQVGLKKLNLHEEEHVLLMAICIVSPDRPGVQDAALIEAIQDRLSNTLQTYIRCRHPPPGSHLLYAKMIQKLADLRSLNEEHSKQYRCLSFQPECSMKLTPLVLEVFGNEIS
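Fluorescence polarization assay measuring small-molecule disruption of VDR binding to the coregulator peptide SRC2-3. Compounds were pin-transferred (23 nl) into the reagent mix and incubated 2 h at room temperature before reading.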
Active calls of the source: *; ? = inconclusive; & = joins results of further samples; [ ] = another dose, or the depositor's remark. On the % scale 0 is the no-effect control and ±100 the full control effect; potency means the concentration at half of the fitted maximal effect. This is a subset. The share of hits here may be higher or lower than overall.

SMILES	VDR inh
COc1ccc(N(C)S(=O)(=O)c2cccc(C(=O)Nc3ccc4c(c3)OCCO4)c2)cc1	32%[activator]
O=C(CCSCc1ccc(Cl)cc1)NCCc1ccccc1	4%&-9%
Cc1ccc(S(=O)(=O)NC(Cc2c[nH]c3ccccc23)C(=O)O)cc1 (stereo not drawn)	7%
C[C@@]12C=Cc3occc3C1CC[C@@]13C[C@@H](CCC12)[C@@](O)(CO)C3 (stereo partly drawn)	40µM*
CS(=O)(=O)Nc1nnc(SCC(=O)Nc2cccc([N+](=O)[O-])c2)s1	14%
COc1ccc(OC)c(NC(=O)c2nnn(CC(=O)Nc3ccc(C(C)C)cc3)c2N)c1	-1%
CCN(CC)C(=O)CSc1nc2cc(S(=O)(=O)N3CCOCC3)ccc2n1CC	-4%
O=C(O)CCn1c(=S)oc2ccccc21	2%
Cc1ccc(-n2nc(CO)c(C(=O)NCCO)n2)cc1	6%
O=C(Nc1ccc(F)cc1F)c1cccc(S(=O)(=O)N2CCCCC2)c1	-7%
CCOc1ccc(CCNC(=O)c2cccc(NC3=NC4CS(=O)(=O)CC4S3)c2)cc1OCC (stereo not drawn)	-22%
COc1ccc(C)cc1NC(=O)C(Sc1nnc2ccccn12)c1ccccc1 (stereo not drawn)	-18%
O=C(CSc1nncs1)NCc1ccc(F)cc1	-23%
O=C(NC(NCc1ccccc1)C(Cl)(Cl)Cl)c1cccnc1 (stereo not drawn)	-3%
Cc1ccc(/C=N/NC(=O)c2nc3nc(C)cc(C)n3n2)cc1	-19%
COC1(C2=NCCN2)COc2ccccc2O1 (stereo not drawn)	2%&-10%
COc1cccc(CN2CCN(c3cccc(C(F)(F)F)c3)CC2)c1OC	-7%
O=C(c1ccccc1Cc1ccccc1)N1CCN(S(=O)(=O)c2ccccc2F)CC1	-2%
Cc1cccc(N2CN=C3SCC(=O)N3C2)c1	10%
O=C(NC(=S)Nc1nc(-c2ccccc2)cs1)c1cccnc1	10%
Cn1c(=O)c2c(-c3ccccc3Br)n(Cc3ccccc3)cc2n(C)c1=O	1%
CN(C)CCCN(C(=O)c1ccc([N+](=O)[O-])s1)c1nc2cc3c(cc2s1)OCCO3	11%
COCCN(CC(=O)Nc1cccc(C)c1C)C(=O)c1ccc(S(=O)(=O)N2CCOCC2)cc1	8%
Cc1cccc(NC(=O)c2nc[nH]c2C(=O)NC2CCN(C(=O)OC(C)(C)C)CC2)c1	3%
O=C(NCc1cccs1)N[C@@H](Cc1ccccc1)C(=O)O	6%
Cc1ccc2c(Sc3ccc(Cl)cc3)c(C(=O)N3CCCCC3)[nH]c2c1	7%
CCC(=O)c1ccc(OCC(O)Cn2nc(C)c(Br)c2C)cc1 (stereo not drawn)	0%
O=C(NCc1ccco1)C1CCCN(c2nnc(-n3cccc3)s2)C1 (stereo not drawn)	-27%
Cc1cc(C)n2c(SCc3c(C)noc3C)nnc2n1	6%
O=C(NCCCN1CCOCC1)c1ccc(/C=C2\Oc3ccccc3N(Cc3ccccc3F)C2=O)cc1	2%

Entries shown so far with a COOH group (3):
SMILES	VDR inh
Cc1ccc(S(=O)(=O)NC(Cc2c[nH]c3ccccc23)C(=O)O)cc1 (stereo not drawn)	7%
O=C(O)CCn1c(=S)oc2ccccc21	2%
O=C(NCc1cccs1)N[C@@H](Cc1ccccc1)C(=O)O	6%

Further records follow:
SMILES	VDR inh
Cc1cc(C)c(NC(=O)COC(=O)Cc2ccsc2)c(C)c1	-15%
CC1CC(C)CN(C(=O)CNC(=O)c2sc3ccccc3c2Cl)C1 (stereo not drawn)	11%
Cc1ccc(CCNC(=O)c2ccc3c(c2)nc2n3CCCCC2)cc1	7%
COc1ccc2[nH]c(=O)c(CNc3ccc(C)c(C)c3)cc2c1	-6%
O=C(CCN1CCCCC1)NCNC(=O)CCN1CCCCC1	-21%
Cc1cc(C)c(S(=O)(=O)Nc2ccc(-c3ccc(N4CCCCC4)nn3)cc2)cc1C	16%
c1ccc(C[C@H]2CN=C(Nc3ccccc3)N2CCCC2CCCCC2)cc1	-10%
O=C(C1CCCN(c2ncnc3c2nc2n3CCCCC2)C1)N1CCN(c2ccc(Cl)cc2)CC1 (stereo not drawn)	-5%
Cc1ccc2c(c1)NC(=O)c1cccnc1O2	-2%
CCN(CC)CC(C)OC(=O)c1ccccc1Cl (stereo not drawn)	0%
CCOC(=O)C1CCN(C(=O)COC(=O)/C=C/c2ccccc2)CC1	8%
O=C(c1cc(-c2cccs2)on1)N1CCCc2ccccc21	11%
CC(=O)Nc1ccccc1OCc1nnc(-c2cccs2)o1	-3%
CCOC(=O)c1ccc(NC(=O)Nc2cc(C)on2)cc1	1%
COc1cc(/C=C2\SC(=N)N(c3ccc4c(c3)OCO4)C2=O)cc(OC)c1O	-11%
CCCN(CCC)C(=O)CN1C(=O)CSc2ccc(S(=O)(=O)N3CCC(C)CC3)cc21	-4%
CC1(C)CC2(CCO1)OC(=O)CC2C(=O)Nc1ccc(Cl)cc1[N+](=O)[O-] (stereo not drawn)	7%
Cc1ccc(C(C)C)c(OCC(=O)N/N=C/c2cccn2C)c1	-14%
CNC(=O)/C(C#N)=C\c1cc(C)n(-c2ccc(N3CCOCC3)cc2)c1C	4%
CCOc1ccc(NC(=O)COC(=O)Cn2cnnn2)cc1OCC	-7%
Cc1ccc2cc(CCl)c(Cl)nc2c1	9%
COc1ccccc1-n1c(=O)n(C)c2c(C(N)=O)nc(-c3cccc(OC)c3OC)nc21	17%
Cc1ccc2c(c1)N(C(=O)CCC(=O)NCCCN1CCOCC1)CCO2	3%
O=C(Nc1ccccc1OCc1cc(=O)n2ccccc2n1)c1ccccc1F	8%
CC(=O)Nc1cccc(N2CCCC2=O)c1	-12%
CC(C)(C)c1cc(NC(=O)c2cccnc2)no1	-9%
CCCCCCNC(=O)N1C/C=C\C(c2ccc(OC)cc2)N(Cc2ccc(F)cc2)C(=O)C1 (stereo not drawn)	5%&13%
O=C(CSCc1c(Cl)cccc1Cl)Nc1ccc2c(c1)OCO2	-5%
Cc1cc(C)c(C(=O)COC(=O)c2cc([N+](=O)[O-])ccc2N2CCOCC2)cc1C	-4%
CC(=O)Oc1ccc(-c2csc(Nc3cccnc3)n2)cc1	7%
CCOC(=O)N1CCC(NC(=O)CC(NS(=O)(=O)c2ccc(C)cc2)c2ccco2)CC1 (stereo not drawn)	0%
COc1ccc(-c2[nH]ncc2C=O)cc1	11%
O=C(O)c1cccc(N2C(=O)C3C4C=CC(C4=C(c4ccccc4)c4ccccc4)C3C2=O)c1 (stereo not drawn)	1%
CCOC(=O)c1cccc(NC(=O)C2CCN(S(=O)(=O)c3cnc[nH]3)CC2)c1	-27%
COc1ccc(NC(=O)CN2C(=O)NC3(CCCCC3C)C2=O)cc1OC (stereo not drawn)	-16%
CN1C(C(=O)NCc2cccs2)=CC(c2ccc(F)cc2)=NS1(=O)=O	-19%
CC1(C)NC(=O)N(CC(O)COc2ccccc2C(=O)N2CCCCC2)C1=O (stereo not drawn)	10%
O=C(Nc1ccc(NC(=O)c2ccccc2O)cc1)Nc1ccc(F)cc1F	3%
Cc1cccc(Cn2c(-c3cccs3)nc3ccccc32)c1	-20%
CC(=O)N1CCC(=NNS(=O)(=O)c2cccc([N+](=O)[O-])c2)CC1	-2%
COc1ccc(/C=C/C(=O)NC(=S)Nc2ccc(S(=O)(=O)Nc3ccc(OC)nn3)cc2)cc1	5%
Clc1ccc2ccc3cccnc3c2n1	-14%
O=c1c(Cc2ccc(Cl)cc2Cl)c(O)ccn1Cc1ccc(Cl)cc1	16%
COc1ccc([N+](=O)[O-])cc1NS(=O)(=O)c1cccc(C(=O)OC2CCOC2=O)c1 (stereo not drawn)	-7%
COc1ccc([C@H]2/C=C\CN(C(=O)c3ccccc3)[C@@H](C)C(=O)N2Cc2ccc(F)cc2)cc1	-4%

The final 5 compounds of the section above lead into the next:
SMILES	VDR inh
COc1ccc(/C=C/C(=O)NC(=S)Nc2ccc(S(=O)(=O)Nc3ccc(OC)nn3)cc2)cc1	5%
Clc1ccc2ccc3cccnc3c2n1	-14%
O=c1c(Cc2ccc(Cl)cc2Cl)c(O)ccn1Cc1ccc(Cl)cc1	16%
COc1ccc([N+](=O)[O-])cc1NS(=O)(=O)c1cccc(C(=O)OC2CCOC2=O)c1 (stereo not drawn)	-7%
COc1ccc([C@H]2/C=C\CN(C(=O)c3ccccc3)[C@@H](C)C(=O)N2Cc2ccc(F)cc2)cc1	-4%
CCn1cc(Br)c(C(=O)Nc2ccc(Cl)c(Cl)c2)n1	4%
O=C(Nc1ccccc1)C1=C[C@@H](c2ccc(C(F)(F)F)cc2)C[C@@H](OCc2ccc(CO)cc2)O1	-12%
Nc1nc(Nc2ccccc2F)sc1C(=O)c1ccc(Cl)cc1	-7%
COc1cc(CNc2cccc(C(=O)O)c2)cc(Br)c1OCC(=O)NC(C)(C)C	-12%
O=C1CC(Cc2ccccc2)C(=O)N1c1ccccn1 (stereo not drawn)	-28%
Cc1cc(NC(=O)CCC(=O)N(Cc2ccco2)C(C(=O)NC2CCCCC2)c2ccccc2)no1 (stereo not drawn)	3%
Cc1cccc(NC(=O)c2c(O)c3ccccc3[nH]c2=O)c1	8%
COC(=O)C(C(=O)OC)C(C(=O)OC)C(C(=O)OC)C(=O)OC	13%
O=C(O)c1cc2c(cc1Br)OCCCO2	?
Cc1ccc(Nc2nc(N)nc(-c3oc4ccccc4c3C)n2)cc1	-8%
CCc1cc(=O)oc2cc(OCc3ccc(C(=O)O)o3)ccc12	-16%
CCC(=O)N1CCc2cc(S(=O)(=O)NCCC(=O)NCc3ccc(C)cc3)ccc21	6%
CCCCC(=O)NC(=S)Nc1cccc(NC(=O)CC)c1	-15%
Cc1ccc(-c2cc(-c3nnc(SCC(=O)NCC(C)C)n3N)c3ccccc3n2)cc1	-16%
O=C(CCC(=O)OCC(=O)c1ccc(-c2ccccc2)cc1)Nc1cccc(Cl)c1	10%
Cc1cc(N2CCN(C)CC2)nc2ccc(NC(=S)N3CCC4(CC3)OCCO4)cc12	-3%
CSc1cccc(NC(=S)N(CCC(C)C)C2CCN(C(C)C)CC2)c1	-17%
C[C@@H]1CN([C@H](C)CO)C(=O)c2cc(NC(=O)Nc3ccc(F)cc3)ccc2O[C@H]1CN(C)C(=O)Nc1ccc(C(F)(F)F)cc1	-9%
CC(=O)Nc1cccc(-c2csc(NCc3ccccc3)n2)c1	-10%
COc1ccc(C(=O)NCCCSC)cc1OC1CCN(C(C)C)CC1	-5%
Cc1cc(C)nc(Oc2ccc(Br)cc2)n1	-3%
Cc1ccc(S(=O)(=O)N(C)C)cc1NC(=O)COC(=O)c1ccc(Cl)cc1	9%
CCN(CC)CCN(C(=O)/C=C/c1cccs1)c1nc2ccc(OC)cc2s1	-29%
Cc1ccc(CN2CCNC2=O)cc1	-3%
O=C(Cc1ccccc1)Nc1nnc(SCC(=O)NC2CCCC2)s1	-5%
O=C(CSc1nnc(COc2ccc(Cl)cc2)n1Cc1ccco1)N1CCNC1=O	-5%
O=C(O)c1cccc(NS(=O)(=O)c2cccc(C(=O)Nc3ccccc3[N+](=O)[O-])c2)c1	-10%
CCOc1ccc(CCNC(=O)COC(=O)C2CCN(c3ccc(C(F)(F)F)cn3)CC2)cc1OCC	13%
NC(=O)c1ncn([C@@H]2O[C@H](CNCc3cnc(N4CCOCC4)s3)[C@@H](O)[C@H]2O)n1	-1%
Cc1ccc(C(=O)N2CCCC(c3ccc(Cl)cc3)=N2)cc1	-6%
Cc1ccccc1CCNC(=O)C1CCC(=O)N(Cc2ccc(Cl)cc2)C1 (stereo not drawn)	5%
CCc1nc(SCC(=O)Nc2cc(C)ccc2OC)c2c(C)c(C)sc2n1	?
CNc1ccccc1C(=O)OCC(=O)N(CCOC)c1c(N)n(CC(C)C)c(=O)[nH]c1=O	-10%
O=C(/C=C\c1ccco1)Nc1cc([N+](=O)[O-])ccc1F	-16%
CCc1ccc(CNC(=O)c2cc3c(=O)n(CC)c4ccccc4c3s2)cc1	-15%
COc1ccc(CCNC(=O)CN2C(=O)COc3ccccc32)cc1OC	-7%
CCC(CC)C(=O)Nc1ccc2nc(SCc3ccccc3)sc2c1	17%
CNC(=O)N(C1=NCC(C)(C)S1)c1ccc(F)c(Cl)c1	4%
CC(=O)c1ccc(OCCCC(=O)NNC(=O)c2ccccn2)cc1	13%
O=C(O)/C=C/C(=O)N1CCN(S(=O)(=O)c2cccc(C(F)(F)F)c2)CC1	-10%
Cc1cc(Br)c(NC(=O)CN(C)CCOc2ccccc2)c(Br)c1	-10%
COc1cccc(Oc2ccc(N)cn2)c1	-14%
CC[C@@H]1CCCCc2ccccc2[C@@H](C(=O)C[C@H](O)CC(C)=O)OC1=O	11%
CC(C)CC(=O)NC1(C(F)(F)F)C(=O)Nc2c1c(=O)[nH]c(=O)n2Cc1ccco1 (stereo not drawn)	6%
CCOc1ccc(C2=NC(c3cccs3)=Nc3ccc(C(C)C)cc3N2)cc1	-12%
CCOc1ccccc1NC(=O)C(C)N1C(=O)c2ccccc2S1(=O)=O (stereo not drawn)	-12%
FC(F)(F)c1cccnc1N1CCN(c2ncnc3nc[nH]c23)CC1	9%
O=C(CNC(=O)C12CC3CC(CC(C3)C1)C2)N1CCN(S(=O)(=O)/C=C/c2ccccc2)CC1	-7%
Cc1cc2oc(=O)cc(-c3ccccc3)c2c(C)c1-c1ccc(O)cc1	?
Cc1ccc(CNC(=O)CCCn2c(=O)c3ccccc3n(Cc3ccccc3C)c2=O)cc1	-5%
CCCN1C(=O)/C(=C/C=C2\N(CC)c3ccccc3C2(C)C)SC1=S	-7%
COC(=O)Cc1csc(Nc2c(C)n(C)n(-c3ccccc3)c2=O)n1	-5%
C[C@]12CC[C@@H]3c4ccc(O)cc4CC[C@H]3[C@@H]1C[C@H](O)C2O (stereo partly drawn)	-4%
CCN1CCc2nc3ccccc3c(C(=O)Nc3ccc(F)cc3)c2C1	-6%
Cc1cc(OCC[N+]2(C)CCCCC2)nc2ccccc12	2%
O=C1Cc2ccccc2Sc2ccc(Cl)cc21	2%
